Screens from PubChem.
gsp ag – agonists of gsp mutant (McCune-Albright syndrome); gsp mutant cells, cAMP HTRF, 30 min; control for the full effect not named in the record; 0.13% of 340,000 active; Potency, µM (top dose mostly 76.9 µM), for the others: top-dose activation (cAMP increase), actives largely listed as activators; active = well fitted activation curve with a large enough effect; inconclusive = small, poorly fitted or top-dose-only effect, or another doubt; inactive = no such curve, though single readings can be large or run the other way; cell line not stated here;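 note: phosphodiesterase inhibitor Ro 20-1724 added with compounds to block cAMP breakdown; potency is the fitted concentration of half-maximal effect; nearly all actives have a fitted effect of over 60% in size; about a fifth of the inactives were tested at one dose only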
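Cells in DMEM/10% FBS with G418 were pretreated with compounds in DMSO plus […] (300 uM stock) for 30 min at 37C. cAMP was measured by HTRF (cAMP-d2 plus anti-cAMP antibody-K) after 30 min at room temperature.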
Menin-MLL FL inh – displaces fluorescein MLL peptide from human menin | 290,000 tested, under 10 active | Fluorescence polarization, fluorescein-MLL peptide displacement from menin | FP activity change, % at 61.4 µM | AID 1766; inconclusive = falling polarisation curve, or a change in total fluorescence; inactive = total fluorescence flat and polarisation flat or rising; no compound was filed as active; the % refers to the polarisation; negative = inhibition;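 note: % of control where 0% means no effect; inhibitors lower the polarisation; unlabelled MLL peptide was the positive control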
TRPML1 agonist – activates the human TRPML1 channel; Q9GZU1; TRPML1-expressing cells, Ca2+ dye fluorescence, FDSS; host cell line not named in the record; reference of the full effect not given here; activation, % (concentration not given with the values); 0.12% of 410,000 active; in the data active = activation above about 50%; inconclusive = about 30% to 50%; inactive = below about 30%; note: 0% is about no effect; the text of the record puts the active cut at 80%
Target sequence (Q9GZU1 whole entry, looked up): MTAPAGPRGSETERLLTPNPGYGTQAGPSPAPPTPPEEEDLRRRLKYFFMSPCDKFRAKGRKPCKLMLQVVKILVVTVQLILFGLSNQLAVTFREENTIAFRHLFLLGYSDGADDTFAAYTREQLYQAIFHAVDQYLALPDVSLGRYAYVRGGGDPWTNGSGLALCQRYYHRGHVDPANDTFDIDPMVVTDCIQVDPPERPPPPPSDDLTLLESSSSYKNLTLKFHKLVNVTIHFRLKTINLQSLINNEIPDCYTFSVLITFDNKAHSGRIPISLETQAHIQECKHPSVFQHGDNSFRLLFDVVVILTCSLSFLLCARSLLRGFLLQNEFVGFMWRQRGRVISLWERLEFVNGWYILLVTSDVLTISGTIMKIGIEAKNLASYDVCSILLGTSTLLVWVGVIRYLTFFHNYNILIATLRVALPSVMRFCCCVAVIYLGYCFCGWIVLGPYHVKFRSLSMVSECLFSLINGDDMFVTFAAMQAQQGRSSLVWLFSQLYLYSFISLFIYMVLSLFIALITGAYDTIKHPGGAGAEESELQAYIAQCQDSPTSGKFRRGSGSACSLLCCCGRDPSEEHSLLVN
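Kinetic FDSS Ca2+ read in Tet-induced TRPML1-DL cells (ABD Ca8 dye plus quencher, 45-90 min RT loading): baseline, then compound, then 110 s agonist window; EC80 agonist 54-4 at 4uM final added afterwards for a 110 s antagonist window.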
ClpP mod – qHTS Assay for Activators of ClpP. Potency, µM (highest dose often 57.5 µM), without a hit: top-dose activity change, negative = active. AID 651965, 2013. 1.9% of 340,000 active. ATP-dependent Clp protease proteolytic subunit (Bacillus subtilis (strain 168)), P80244. purified B. subtilis ClpP, FRET peptide cleavage, 20 min; active = well fitted falling curve with a large enough effect; inconclusive = small, poorly fitted or top-dose-only effect; inactive = no such curve, though single readings can be large or run the other way; note: potency is the fitted concentration of half-maximal effect; the source files actives as falling curves though it sought activators and does not explain the sign; nearly all actives have a fitted effect of over 65% in size; many hits overshoot -100%
Target sequence (P80244 whole entry, looked up): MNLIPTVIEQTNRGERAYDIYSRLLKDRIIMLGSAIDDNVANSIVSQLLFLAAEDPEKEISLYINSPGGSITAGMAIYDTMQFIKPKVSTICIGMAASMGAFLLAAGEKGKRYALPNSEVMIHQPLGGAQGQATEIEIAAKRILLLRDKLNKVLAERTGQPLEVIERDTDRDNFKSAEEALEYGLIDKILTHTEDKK
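Purified B. subtilis ClpP, 10 microg/mL final in Tris/HCl pH8 with KCl, BSA, glycerol and Tween-20, cleaved an Abz/nitrotyrosine-quenched decapeptide. Fluorescence (ex 320, em 430) was read at 0 and 20 min at room temperature. Delta was normalized to 5.8 microM ADEP and DMSO/no-enzyme controls.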
gsp antag – antagonists of gsp mutant (McCune-Albright syndrome); gsp-mutant cells, cAMP HTRF, 30 min; control for the full effect not named in the record; Potency, µM (highest dose often 76.9 µM), for the others: top-dose activity change, negative = inhibition, actives largely listed as inhibitors; 0.4% of 340,000 active; AID 624288; active = falling curve of any shape with a large fitted effect; inconclusive = falling curve, mostly with a smaller effect; inactive = flat or rising curve; cell line not stated here;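 note: intracellular cAMP measured with PDE inhibitor Ro 20-1724 present during compound exposure; potency is the fitted concentration of half-maximal effect; % is set by controls: 0 for no effect and ±100 for the full control effect; nearly all actives have a fitted effect of over 65% in size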
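Cells in G418 medium, seeded 16-24 h, 37C; buffer exchange to DPBS + 1 mM CaCl2, 0.5 mM MgCl2, 0.05% BSA; cpds in DMSO + […] (300 uM stock), 30 min 37C; HTRF cAMP detection.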
TRPML1 inh – inhibitors of human TRPML1 channel; Q9GZU1; TRPML1-inducible cells, Ca2+ dye fluorescence, FDSS; hits give low values; inhibition of EC80 agonist-evoked calcium signal; activity change, negative = inhibition, % (test concentration not listed); 0.02% of 390,000 active; AID 624415; in the data active means activity change below about -50%; inconclusive means about -30% to -50%; inactive means above about -30%;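 note: stimulus is agonist 54-4 at its EC80 concentration; % is set by controls: 0 for no effect and ±100 for the full control effect; compound concentration not given in the record; the text of the record puts the active cut at -80%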
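Calcium fluorescence in TRPML1-DL cells induced overnight with Tet: a 110 s read after compound pin addition, then a 110 s antagonist read after challenge with 54-4 at 4 uM final (EC80).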
The depositor's hits bear a star; ? = inconclusive; . = not tested or not shown; & = joins results of further samples; [ ] = dose if it differs, or a comment.

Each structure is followed by: gsp antag, gsp ag, Menin-MLL FL inh, TRPML1 inh, TRPML1 agonist, ClpP mod
1: CCc1ccccc1NC(=S)NC1CC2CCC(C1)N2Cc1ccc(F)cc1 (stereo not drawn)
  1%, -4%, -2.5, 21, 0.2, 0.8%
2: O=C(/C=C\c1cccs1)N1CCN(Cc2ccc3c(c2)OCO3)CC1
  -4%, -1%[15.4 µM], 0.1, -4, -0.7, .
3: CCOC(=O)C1CCCN(C(=O)c2cc(S(=O)(=O)N(C)C)ccc2N2CCCC2)C1 (stereo not drawn)
  2%, -2%[15.4 µM], ., 12, -0.1, .
4: COc1ccc2cc(C(=O)/C=C/c3cc(OC)c(OC)c(OC)c3)ccc2c1
  -7%, -3%, 3.9, -12, 0.3, .
5: COc1cc(/C=C2/SC(=S)N(Cc3ccccc3)C2=O)cc(OC)c1O
  7%, 4%, ?, -1, 20, .
6: O=C(Cc1ccccc1[N+](=O)[O-])NNC(=O)Nc1ccc2c(c1)OCO2
  6%, 17%, -1.6, 20, -0.3, 0.5%
7: COc1ccc(-n2c(=O)c3c4c(sc3n(Cc3c(F)cccc3Cl)c2=O)CN(C(C)=O)CC4)cc1OC
  ., ., ., 50, 1.5, -0.5%
8: CC1(C(=O)NS(=O)(=O)C2CC2)CCCN(C(=O)/C=C/c2ccccc2)C1 (stereo not drawn)
  ., ., ., -9, -0.1, 0.1%
9: COc1ccccc1C(=O)OCn1nnc2ccccc2c1=O
  1%, -32%[inhibitor], -2.3, -1, -0.4, 0.0%
10: CCOc1ccc(CCNC(=O)COC(=O)c2cccc(S(=O)(=O)N3CCCC3)c2)cc1OCC
  -12%, 17%, ., 5, 2.0, 1.2%
11: O=C(Nc1ccc(Br)cc1)c1cccc2c1C(=O)N(C1CCCCC1)C2
  15%, 9%, ., -10, -0.5, 0.5%
12: Cc1cc(NC(=O)C2CCCO2)ccc1Br (stereo not drawn)
  9%, 1%[15.4 µM], -0.6, -3, 2.0, .
13: COC(=O)c1ccc(NC(=O)CSc2nnc(Cc3cccn3C)n2-c2ccc(F)cc2)cc1
  -11%, -38%[inhibitor], 2.0, -4, 1.3, 19%
14: O=C(c1cccs1)N1CCN(C23CC4CC(CC(C4)C2)C3)CC1
  8%, -36%[inhibitor], ., 1, 0.0, 0.0%
15: CC(Nc1nc(-c2ccccc2O)nc2ccccc12)c1ccccc1 (stereo not drawn)
  -13%, 4%[15.4 µM], 4.8, 2, 0.7, .
16: N#Cc1ccc(-c2csc(NC(=O)/C=C/c3cccs3)n2)cc1
  -25%, -61%[inhibitor], 2.2, 1, 2.7, 10.0%
17: CC(=O)c1nccs1
  4%, ., ., 5, -0.8, -1.0%
18: C=CCNC(=O)CN(CCc1ccccc1)S(=O)(=O)c1ccccc1
  9%, -14%, -1.1, 36, 0.7, .
19: CN(C)c1ccc2cc(S(=O)(=O)O)cc(O)c2c1
  ?, ?, ., 42, -0.3, .
20: O=c1[nH]c(-c2ccccc2)nn1-c1ccc(Br)cc1Br
  3%, 10%, -2.2, 12, 2.3, -4.1%
21: Cc1ccc(NC(=O)CN2CCCC2)cc1
  10%, 15%, -4.4, -18, 1.0, 0.5%
22: Cc1ccc(CN2CC(C(=O)N3CCN(S(=O)(=O)c4cc(C)ccc4C)CC3)CC2=O)cc1 (stereo not drawn)
  -13%, -39%[inhibitor], ., 16, -0.1, -3.9%
23: COc1cccc(NC(=O)CN(C)C(=O)c2cc(-c3cccc(Br)c3)nc3ccccc23)c1
  ?, -7%, ., ?, 1.1, -3.0%
24: COc1ccc(C2C(C#N)=C(N)Nc3onc(C(C)(C)C)c32)c(OC)c1 (stereo not drawn)
  8%, 2%, 0.1, 22, 0.6, -3.7%
25: COc1ccc(NC(=O)CN2C(=O)NC(C)(c3ccccc3)C2=O)c(OC)c1 (stereo not drawn)
  -15%, ?, -17, 58, 0.4, .
26: COc1ccccc1NC(=O)CCSc1nnc(-c2ccncc2)o1
  2%, 6%[15.4 µM], -0.2, -3, 0.7, 0.3%
27: CC(/C=C/C1[C@H](C)C[C@H](O[C@@H]2O[C@H](CO)[C@@H](O)[C@H](O)[C@H]2O)CC1(C)C)O[C@H]1O[C@H](CO)[C@@H](O)[C@H](O)[C@H]1O (stereo partly drawn)
  -9%, -31%[inhibitor], ., 22, 0.2, -0.5%
28: COc1ccc(CCN(C)S(=O)(=O)c2cn(C)c(=O)n(C)c2=O)cc1OC
  7%, 16%, ., -9, -0.2, 1.8%
29: CCC(CC)NC(=O)CO/N=C/c1ccc(Cl)cc1Cl
  5%, 24%, 6.2, -5, -0.5, .
30: O=c1cc(CSc2ccccc2)[nH]c(=S)[nH]1
  -18%, 25%, 0.0, 0, -1.3, 0.8%
31: Cc1ccc(C2CC2C(=O)NN)cc1 (stereo not drawn)
  2%, -41%[inhibitor], 0.8, -3, -0.3, 0.5%
32: O=C(O)c1ccc(CSc2nnc(-c3ccc(Cl)cc3)o2)cc1
  -19%, 2%[15.4 µM], 0.4, -8, 0.6, 0.4%
33: Cc1ccc(-n2c(C)nc3c(cnn3-c3ccccc3C)c2=O)cc1F
  ., ., ., 8, -1.0, -1.3%
34: COC(=O)CSc1nnc(CNC(=O)c2ccccc2OC)n1-c1ccc(OC)cc1
  -10%, 10%, -1.4, -15, 0.4, -3.5%
35: CCCc1cc(C(N)=O)c(NC(=O)C2CCCO2)s1 (stereo not drawn)
  -4%, -1%, 7.1, -12, 0.0, -16%
36: CC1=CCC2(CO)COC(c3ccccc3O)C1C2 (stereo not drawn)
  8%, 14%, 0.0, 2, -1.2, 0.0%
37: c1ccc(-c2ccc(C3=Nn4c(Cn5nnc6ccccc65)nnc4SC3)cc2)cc1
  -17%, 36%, 6.5, 18, 1.3, ?
38: OCCCCCNc1ncnc2ccccc12
  -15%, -3%, -1.2, -1, -0.5, -7.2%
39: COC(=O)C(Cc1ccc(O)cc1)NC(=O)C1CCN(S(=O)(=O)c2ccc(C)cc2)CC1 (stereo not drawn)
  -7%, -3%[15.4 µM], 1.2, 37, -0.1, .
40: COc1ccc(C(=O)N[C@H](C(=O)OCn2nnc3ccccc3c2=O)C(C)C)cc1
  -11%, -4%[15.4 µM], ., 42, -0.7, 2.4%
41: COc1cc(C(CCN2CCCC(C)C2)c2c(OC)cc(OC)c3c(-c4ccccc4)cc(=O)oc23)cc(OC)c1OC (stereo not drawn)
  1%, ?, -0.8&-5.6, -12&3, 0.7&1.3, -0.4%
42: O=[N+]([O-])c1ccc(Oc2cccnc2)nc1
  6%, -4%[15.4 µM], -1.8, 14, 0.1, ?
43: CCOC(=O)CC(Nc1nc(N2CCOCC2)nc(N2CCOCC2)n1)c1ccccc1Cl (stereo not drawn)
  -7%, 6%, 1.1, -9, 1.6, -1.2%
44: COc1ccc(NC(=O)NS(=O)(=O)c2ccc(C)cc2)c(OC)c1
  -3%, -48%[inhibitor], -3.6, 30, 1.6, 0.8%
45: Cc1ccc(COC(=O)c2cc(S(=O)(=O)N3CCCCC3)ccc2N2CCOCC2)cc1
  -9%, 7%[15.4 µM], ., 44, 1.4, .
46: Cc1ccc(N2CC(C(=O)Nc3nnc(SCC(N)=O)s3)CC2=O)cc1C (stereo not drawn)
  6%, -5%, -2.9, -5, 1.2, -8.4%
47: CCNc1nc(N)nc(Oc2ccc(OCCOc3ccccc3)nn2)n1
  1%, -2%, -1.7, -2, -0.3, 4.4%
48: CCN(CC)S(=O)(=O)c1ccc(Cl)c(NC(=O)c2cc(Cl)cc(Cl)c2)c1
  5%, 13%[15.4 µM], 7.6, 14, -1.0, -2.6%
49: COc1ccc(N(CC(=O)Nc2ccc(C)cc2)S(=O)(=O)c2c(C)noc2C)cc1
  0%, 17%, ., 22, 3.0, 0.1%
50: Cc1ccc(C)c(NC(=O)CN2C(=O)CCc3cc(S(=O)(=O)N4CCCCC4)ccc32)c1
  ., ., ., -6, -0.9, 0.5%

Looked up above.
In ClpP mod, COc1ccc(NC(=O)NS(=O)(=O)c2ccc(C)cc2)c(OC)c1 shows 0.8%
In gsp ag, COc1ccc(N(CC(=O)Nc2ccc(C)cc2)S(=O)(=O)c2c(C)noc2C)cc1 shows 17%
In TRPML1 agonist, COc1cc(C(CCN2CCCC(C)C2)c2c(OC)cc(OC)c3c(-c4ccccc4)cc(=O)oc23)cc(OC)c1OC (stereo not drawn) shows 0.7&1.3

The listing continues.
Each structure is followed by: gsp antag, gsp ag, Menin-MLL FL inh, TRPML1 inh, TRPML1 agonist, ClpP mod
51: COc1ccc(OCC(=O)NC2CCCc3ccccc32)cc1 (stereo not drawn)
  4%, -39%[15.4 µM], 0.2, -16, 0.8, .
52: CN(C)c1nc(-c2ccccc2)cc(C(F)(F)F)c1C#N
  -6%, 17%, 2.1, 7, 2.3, 32µM*
53: COCCN(C(=S)Nc1cc(C)cc(C)c1)C(C)c1cccs1 (stereo not drawn)
  -4%, 4%, 1.7, -13, 0.2, -0.7%
54: COc1ccccc1NS(=O)(=O)c1cc(NC(=O)CCc2nc3ccccc3c(=O)[nH]2)ccc1C
  ?, -26%, ., -4, 1.1, 0.4%
55: COc1ccc(Cn2c(SCc3cc(C)ccc3C)nc3cc(OC)c(OC)cc3c2=N)cc1
  12%, ?, 4.1, -11, -0.1, -5.7%
56: CN(CC(=O)Nc1ccccc1Br)C(=O)c1cccc([N+](=O)[O-])c1
  7%, 16%, 1.0, 6, 1.4, .
57: CCCCC(CC(O)COCC(C)C)C(=O)NN (stereo not drawn)
  3%, 8%[15.4 µM], 0.0, -1, 0.0, 0.0%
58: COc1ccc(NC(=O)CN(c2ccc(C)cc2)S(C)(=O)=O)c(OC)c1
  -7%, 1%, -0.4, 6, -0.9, 0.2%
59: COc1ccc(OCC(=O)Nc2ccccc2C(=O)OCc2cc(=O)n3nc(C)sc3n2)cc1
  ., ., ., 13, 1.7, ?
60: CCCCCCCCCCCCCCCC[n+]1ccc(C(N)=O)cc1
  12%, 19%[15.4 µM], ?, 24, 4.8, ?
61: Cc1ccc(NC(=O)c2ccc(NS(=O)(=O)c3c(C)noc3C)cc2)cc1C
  -28%, -8%[15.4 µM], -0.3, 13, 0.5, 1.6%
62: Clc1cccc(CNc2nnnn2-c2ccccc2)c1
  -17%, 12%, -0.7, 8, -0.3, -5.6%
